# Lamin A splicing: qHTS Assay for Modulators of Lamin A Splicing; HeLa LMNA splicing GFP/RFP minigene ratio, 48 h; Potency, µM (doses to about 46.1 µM), for inactives: at the top dose ratio change, negative = inhibition, usual class: inhibitors; AID 1487, 2009; 0.01% of 200,000 active; active = well fitted inhibition curve with a large enough effect in the signal ratio, with a control signal flat, not every such curve was filed as active; inconclusive = small, poorly fitted or top-dose-only effect, or effect the other way, or a change in a side signal; the % refers to the signal ratio; note: % is set by controls: 0 for no effect and ±100 for the full control effect
#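 S3 HeLa cells stably expressing lamin A-EGFP splicing minigene plus DsRed2, 600 cells/well, 48 h compound exposure at 37C. Laser-scanning cytometry; analysed as GFP (500-530 nm)/RFP (575-640 nm) total intensity ratio; 0.5% DMSO vehicle.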
# GAA inhib: qHTS Assay for Inhibitors of Human alpha-Glucosidase as a Potential Chaperone Treatment of Pompe Disease; 0.005% of 200,000 active; Potency, µM (series often up to 76.9 µM), for inactives: at the highest dose activity change, negative = inhibition, actives largely listed as inhibitors; purified human GAA, 4-MU-alpha-glucoside fluorescence; Lysosomal alpha-glucosidase (Homo sapiens), P10253; AID 1466, 2008;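 note: plate controls were uninhibited enzyme wells for no effect and no-enzyme background for full effect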
#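 Human enzyme at 4 nM with 400 uM 4-methylumbelliferyl-alpha-D-pyranoside, citrate/phosphate buffer pH 5.0, 0.005% Tween-20, 20 min at room temperature. Compounds up to 77 uM. 4-MU fluorescence (Ex 365/Em 440) read after NaOH/glycine stop; AC50 from Hill fit.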
# GAA glycogen mod: qHTS Assay for Inhibitors and Activators of Human alpha-Glucosidase Cleavage of Glycogen. Lysosomal alpha-glucosidase (Homo sapiens), P10253. recombinant GAA, glycogen substrate, Amplex Red glucose oxidase fluorescence. Potency, µM (doses to about 76.4 µM), without a hit: at the highest dose activity change, negative = inhibition, usual class: inhibitors. 0.38% of 300,000 active. AID 2100, 2009;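 note: 0% = full enzyme reaction and -100% = no-enzyme basal signal; the screen sought inhibitors and activators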
#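 Recombinant enzyme (4 nM final) with compounds titrated up to 77 uM and bovine liver glycogen (30 ug) in citrate pH 5.0, 0.01% Tween-20, 37 C 40 min. Released glucose detected by Amplex Red/glucose oxidase (Ex 573/Em 610); AC50 from Hill fits.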
# HTT cytoprotect: qHTS Multiplex Assay to Identify Dual Action Probes in a Cell Model of Huntington: Cytoprotection (ATP); PC12 HTT-Q103 induced, cytoprotection, ATP luminescence, 40 h; Potency, µM (titrated, usually from 56.4 µM), inactives show cytoprotection (ATP increase), most hits filed as activators; 0.14% of 230,000 active;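 note: % of control where 0% means no effect; nearly all actives have a fitted effect of over 45% in size; toxic huntingtin expression switched on by the ecdysone agonist tebufenozide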
#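 Rat PC12, Q103 Htt exon1-GFP fusion, ecdysone promoter; tebufenozide inducer 100 nM final; compound titration; qHTS, 1500 cells/well; ATPlite luminescent read.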
# HTT aggregate: qHTS Multiplex Assay to Identify Dual Action Probes in a Cell Model of Huntington: Aggregate Formation (GFP); PC12 HttQ103-GFP aggregates, Acumen cytometry, 40 h; Potency, µM (top dose mostly 46.1 µM), without a hit: top-dose activity change, negative = inhibition, hits mostly inhibitors; 1.1% of 220,000 active; AID 1688, 2009; note: % is set by controls: 0 for no effect and ±100 for the full control effect; nearly all actives have a fitted effect of over 60% in size
#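 Steps: seed 1500 PC12 HTTQ103-GFP cells/well; add tebufenozide, 100 nM final; add compound titration; add ATPLite reagent; quantify GFP aggregates by laser scanning cytometry.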
# GAA spleen mod: qHTS Assay for Inhibitors and Activators of Human alpha-Glucosidase From Spleen Homogenate | Lysosomal alpha-glucosidase (Homo sapiens), P10253 | human spleen homogenate, 4-MU-alpha-glucoside fluorescence | Potency, µM (doses to about 79.9 µM), without a hit: at the top dose activity change, negative = inhibition, usual class: inhibitors | 0.006% of 240,000 active | AID 2112, 2009;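 note: 0% = enzyme with vehicle and -100% = no enzyme basal signal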
#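 Compounds were titrated against alpha-glucosidase in spleen homogenate at pH 5.0, with 1 mM 4-methylumbelliferyl substrate for 40 min at 37 C. Reactions were quenched with pH 10 NaOH/glycine and fluorescence measured.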
# Numbers without * were called inactive; u = inconclusive; x = not tested or not shown; & = joins results of further samples; [ ] = remark or other dose. Unless noted, calls come from the whole dose curve; as a rule, active = well fitted curve in the direction sought with a large enough effect; inconclusive = small, poorly fitted or top-dose-only effect, or another doubt; inactive = no such curve, though single readings can be large; an effect the other way counts as inactive or inconclusive. Potency is the fitted concentration of half-maximal effect.
structure,Lamin A splicing,HTT aggregate,GAA inhib,HTT cytoprotect,GAA glycogen mod,GAA spleen mod
CCN(CC)CCCC(C)Nc1c2ccc(Cl)cc2nc2ccc(OC)cc12 (centres undefined),u,x,-2%[15.4 µM],-337%[inhibitor],-7%,-3%&-2%&-3%
CCC(C)c1ccccc1O (centres undefined),x,x,x,-10%&6%,x,-9%&3%
CCN1CCC[C@H]1CNC(=O)c1cc(S(N)(=O)=O)ccc1OC,u,-10%,-8%[15.4 µM],u,5%,11%
C#C[C@]1(O)CC[C@H]2[C@@H]3CCC4=Cc5oncc5C[C@]4(C)[C@H]3CC[C@@]21C,x,2%,x,-14%,x,x
Cc1cccc(C)c1O,x,x,x,-8%,x,0%
Cc1cc(C)nc(NS(=O)(=O)c2ccc(N)cc2)n1,u,-5%&-7%,-11%&-2%[15.4 µM],11%,-12%&-7%,-2%
CN1CCc2cccc3c2C1Cc1ccc(O)c(O)c1-3 (centres undefined),u,x,x,x,u,-5%&5%
O=C(CCCN1CCC(O)(c2cccc(C(F)(F)F)c2)CC1)c1ccc(F)cc1,-19%,-5%,x,-269%[inhibitor],x,-6%
Cc1cccc(Nc2ncnc3ccccc23)c1,-21%,13µM*,-8%,-7%[10 µM],8%,-9%
O=C(O)CCCC[C@@H]1CCSS1,u,x,x,x,x,-3%&9%
O=C(CCCN1CCC(O)(c2ccc(Br)cc2)CC1)c1ccc(F)cc1,-16%,8%[20.6 µM],x,-2%[40.3 µM],x,0%[29.1 µM]
C[C@]12CC[C@@H]3c4ccc(O)cc4CC[C@H]3[C@@H]1CC[C@@H]2O,u,9%&13%,-5%[15.4 µM],u,-4%,5%&8%&-11%&4%&0%&-6%&4%
NC12CC3CC(CC(C3)C1)C2,u,27%&-12%,-1%[15.4 µM],28%,0%,-5%
CCN(CC)CCCC(C)Nc1ccnc2cc(Cl)ccc12 (centres undefined),-14%,x,x,-15%,x,-6%&-12%
ClCCCl,x,x,x,-2%,x,-9%
O=C(/C=C/c1ccc(O)c(O)c1)O[C@H]1C[C@@](O)(C(=O)O)CC(O)C1O (some centres undefined),x,x,x,u,x,2%
O=S(=O)(Nc1ccc(-c2nc3cccnc3s2)cc1)c1cc(F)ccc1F,x,-14%[9.22 µM],x,-5%[10 µM],3%,17%
Nc1nc(N)nc(-c2ccc(Cl)cc2)n1,1%,-5%[9.22 µM],-1%,-21%,4%,1%
Cc1ccc(C(C)C)c(O)c1,u,-14%,x,-43%[inhibitor],x,0%
COC(=O)[C@H]1[C@H]2C[C@H]3c4[nH]c5ccccc5c4CCN3C[C@@H]2CC[C@@H]1O,x,x,x,9%&17%[1.9 µM],x,x

# Exported field by field: 4 of the compounds above
Cc1cccc(Nc2ncnc3ccccc23)c1
- Lamin A splicing = -21%
- HTT aggregate = 13µM*
- GAA inhib = -8%
- HTT cytoprotect = -7%[10 µM]
- GAA glycogen mod = 8%
- GAA spleen mod = -9%
O=C(O)CCCC[C@@H]1CCSS1
- Lamin A splicing = u
- HTT aggregate = x
- GAA inhib = x
- HTT cytoprotect = x
- GAA glycogen mod = x
- GAA spleen mod = -3%&9%
O=C(CCCN1CCC(O)(c2ccc(Br)cc2)CC1)c1ccc(F)cc1
- Lamin A splicing = -16%
- HTT aggregate = 8%[20.6 µM]
- GAA inhib = x
- HTT cytoprotect = -2%[40.3 µM]
- GAA glycogen mod = x
- GAA spleen mod = 0%[29.1 µM]
C[C@]12CC[C@@H]3c4ccc(O)cc4CC[C@H]3[C@@H]1CC[C@@H]2O
- Lamin A splicing = u
- HTT aggregate = 9%&13%
- GAA inhib = -5%[15.4 µM]
- HTT cytoprotect = u
- GAA glycogen mod = -4%
- GAA spleen mod = 5%&8%&-11%&4%&0%&-6%&4%

# Additional records.
structure,Lamin A splicing,HTT aggregate,GAA inhib,HTT cytoprotect,GAA glycogen mod,GAA spleen mod
O=C1CCC(C(=O)O)N1 (centres undefined),x,x,x,x,-15%[76.3 µM],x
CCCCOCCO,x,x,x,-18%&14%,x,1%&-6%
COc1cc2c(c(OC)c1OC)-c1ccc(OC)c(=O)cc1C(NC(C)=O)CC2 (centres undefined),x,x,x,-262%[inhibitor],1%,-1%
Cc1ncc([N+](=O)[O-])n1CC(C)O (centres undefined),-16%,-15%&-5%,-5%[15.4 µM],u,7%&-3%,5%&2%&-7%
C#C[C@]1(O)CCC2C3CCC4=Cc5oncc5C[C@@]4(C)C3CC[C@@]21C (some centres undefined),x,x,x,u,x,-5%
CCCCCCCCCCCCCCCCCCO,u,-5%,x,u,x,-9%
NS(=O)(=O)c1cc2c(cc1Cl)NC(C(Cl)Cl)NS2(=O)=O (centres undefined),u,14%,-10%[15.4 µM],u,1%,4%&5%

# Part of the list above, as labelled records:
SMILES: Cc1ncc([N+](=O)[O-])n1CC(C)O (centres undefined)
  Lamin A splicing = -16%; HTT aggregate = -15%&-5%; GAA inhib = -5%[15.4 µM]; HTT cytoprotect = u; GAA glycogen mod = 7%&-3%; GAA spleen mod = 5%&2%&-7%
SMILES: NS(=O)(=O)c1cc2c(cc1Cl)NC(C(Cl)Cl)NS2(=O)=O (centres undefined)
  Lamin A splicing = u; HTT aggregate = 14%; GAA inhib = -10%[15.4 µM]; HTT cytoprotect = u; GAA glycogen mod = 1%; GAA spleen mod = 4%&5%
SMILES: CCCCOCCO
  Lamin A splicing = x; HTT aggregate = x; GAA inhib = x; HTT cytoprotect = -18%&14%; GAA glycogen mod = x; GAA spleen mod = 1%&-6%
SMILES: COc1cc2c(c(OC)c1OC)-c1ccc(OC)c(=O)cc1C(NC(C)=O)CC2 (centres undefined)
  Lamin A splicing = x; HTT aggregate = x; GAA inhib = x; HTT cytoprotect = -262%[inhibitor]; GAA glycogen mod = 1%; GAA spleen mod = -1%

# Not all compounds are listed; rates above refer to the full screens.
